AID504770: growth inhibitors of E. coli YBA685 in a screen for V. cholerae RctB (chromosome II replication) inhibitors; E. coli YBA685 rctB-dependent plasmid, OD600 growth, 3 h; active compounds read low; z-score (no concentration beside the values); actives 0.27% (n = 130,000); AID 504770;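 active = z-score under -2 on both plates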;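 note: wells of about 30 µL received 100 nL stock; score is relative to mean and SD of the test wells; the first replicate is given; strong numbers were not always called active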
CapD inh: CapD enzyme inhibition. purified CapD enzyme, fluorescence intensity read-out; active compounds read low; some hits fall short of the stated cut. z-score (no concentration beside the values). actives 0.23% (n = 140,000). AID 492967;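 active = z-score under -4 in either of two replicates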;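 note: stock transfer was 100 nL into about 40 µL; score is relative to mean and spread of the plate; one replicate is shown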
* hit, by the source's call; / = no result given.

SMILES	AID504770	CapD inh
Cc1c(Cc2cc3c4c(c2C)C2C=CCC2CN4CC2CC=CC32)cc2c3c1C1C=CCC1CN3CC1CC=CC21 (centres undefined)	/	6
CCCOc1ccc2cc(S(=O)(=O)N3CCCC3)ccc2c1	1.2	/
CCOC(=O)CSc1nc2cc(C(=O)N3CCC(C(N)=O)CC3)ccc2c(=O)n1-c1ccccc1	-0.1	1.4
Cc1cccc(C)c1OC(=O)Cc1ccccc1	0.05	-0.58
NC(=S)c1sccc1CS(=O)c1ccc(Cl)cc1 (centres undefined)	-0.7	-0.075
CCN1CCN(CC(c2ccccc2)c2ccccc2)CC1	-0.45	0.065
Nc1ccccc1SCC(=O)N1CCc2ccccc21	1.9	-0.36
COc1ccc(C(=O)NCCC(C)C)cc1	0.25	1.3
CC12CCC(C(=O)N(CC#N)CC#N)(OC1=O)C2(C)C (centres undefined)	-0.65	/
CCOc1cc(C#N)ccc1OCC(=O)N1c2ccccc2NC(=O)CC1C (centres undefined)	-2.8	/
COc1ccc(N(CC(=O)Nc2ccc(OC)c(OC)c2)S(=O)(=O)c2ccccc2[N+](=O)[O-])c(OC)c1	/	-1.2
Cc1ccc(-n2c3c(cc(C(=O)N4CCOCC4)c2=O)C(=O)CC(C)(C)C3)cc1	/	0.32
COc1cc(Cl)cc(/C=N/n2c(-c3ccc(C)cc3)n[nH]c2=S)c1O	-0.45	-0.28
COc1cc(OC)c(NC(=O)C2=C(C)C(=O)OC23CCN(C(C)C)CC3)cc1Cl	-0.65	-0.04
CC(=O)Nc1ccc(Nc2nc3c(S(=O)(=O)c4ccc(C)c(C)c4)nnn3c3ccccc23)cc1	-0.15	73
COc1cc(OC)c(OC)cc1CNC(=O)CCc1c(C)noc1C	0.3	/
COC(=O)NC1CSCC1OC(=O)CCCN1C(=O)c2ccccc2C1=O (centres undefined)	-0.4	1.1
Fc1ccccc1-c1nc(-c2cccnc2)no1	-2.2	-0.16
N#C/C(=C\c1ccccc1)C(N)=O	-0.75	-0.17
COc1ccc(C(=O)NCC(=O)N/N=C/c2ccc([N+](=O)[O-])s2)cc1OC	/	-0.83
Cc1[nH]n(-c2ccccc2)c(=O)c1Sc1nc2ccccc2[nH]1	0.4	/
Cc1cc(Nc2ccc(C(=O)O)cc2)nc(N)n1	1.7	/
Cc1sc2ncn(CC(=O)N(C)Cc3ccccc3)c(=O)c2c1S(=O)(=O)N1CCN(c2ncccn2)CC1	-0.3	0.88
O=C1COc2ccc(C(=O)NC3CC3)cc2N1	0.3	/
COc1ccc(C)cc1NCC(=O)Nc1ncc(Cl)c(C)c1Cl	-0.4	3.6

(further entries)
SMILES	AID504770	CapD inh
CCN(CC)S(=O)(=O)c1cccc(C(=O)N2CC(O)CC2C(=O)O)c1 (centres undefined)	-0.55	0.31
CC1CCN(Cc2ccc(NC(=O)NCc3noc4ccccc34)cc2)CC1	-1.1	0.64
Cc1ncoc1C(=O)Nc1ccc(C(N)=O)cc1	-0.5	-0.27
N#CCCn1cc(CNCCCn2cnc3ccccc32)c(-c2ccccc2)n1	0.05	/
CCOc1ccccc1N(CC)C(=O)C1CCCN(c2ncnc3c2nc2n3CCCCC2)C1 (centres undefined)	-0.9	-1.1
N#CCOC(=O)C1CSC2(c3ccc(Br)cc3)CCC(=O)N12 (centres undefined)	1.1	/
N#C/C(=C\N1CCOCC1)S(=O)(=O)Cc1ccc(Cl)cc1	0.25	0.23
CCC/C(O)=C(\C#N)c1nc2ccccc2[nH]1	1.3	/
O=c1n(-c2ccccc2)c(=O)n2n1C1CCC2C1	-0.1	-0.77
C=CCN1C(=O)/C(=C/C(=O)OCC)c2ccccc21	0.65	-1
CCCOc1ccc(C2C(C(=O)OCCOC)=C(C)NC3=C2C(=O)CC(c2ccccc2)C3)cc1OC (centres undefined)	/	4.7
CC1(C)OC2OC(C(=O)Nc3cccc4ccccc34)C3OC(C)(C)OC3C2O1 (centres undefined)	/	-0.35
CC1(C)CNC(=S)NC1	-0.35	/
COc1ccc(OC(=O)c2cnc3n(c2=O)CCS3)cc1	1.2	0.49
Cn1c(CNc2nc(-c3ccccc3)cs2)nnc1SCC(=O)c1ccccc1	-0.2	/
CSc1sc(C(=O)N2CCc3ccccc32)cc1S(=O)(=O)C(C)C	-0.25	0.38
CCOc1cc(-c2nc(-c3ccc(C)nc3OC)no2)cc(OCC)c1OCC	0.1	1.1
CCOc1ccccc1C(=O)n1cc(Cl)cn1	-0.45	0.5
O=C(Nc1cc(C(=O)N2CCN(c3ccc(F)cc3)CC2)ccc1N1CC2CC(C1)c1cccc(=O)n1C2)c1ccncc1 (centres undefined)	/	0.14
Cc1ccc(-c2nnc(SCC(=O)Nc3cc(C)ccc3C)n2N)cc1	-1.1	0.085
CC(C)(C)n1nc(-c2ccc3c(c2)OCCO3)c2ccccc2c1=O	-0.25	/
C=Cc1c(SC)sc(C(=O)O)c1C	/	-0.64
CCCCN1C=C(C(=O)OC)C(c2cc(C)ccc2C)C(C(=O)OC)=C1	-0.3	30
CCS(=O)(=O)N1CCN(c2nc3ccccc3o2)CC1	1.6	-0.11
CCCS(=O)(=O)c1cnc2cc(C3CC3)nn2c1N	-0.4	-0.23

No new results follow: an excerpt of the list.
SMILES	AID504770	CapD inh
N#CCOC(=O)C1CSC2(c3ccc(Br)cc3)CCC(=O)N12 (centres undefined)	1.1	/
N#C/C(=C\N1CCOCC1)S(=O)(=O)Cc1ccc(Cl)cc1	0.25	0.23
CCC/C(O)=C(\C#N)c1nc2ccccc2[nH]1	1.3	/
O=c1n(-c2ccccc2)c(=O)n2n1C1CCC2C1	-0.1	-0.77
C=CCN1C(=O)/C(=C/C(=O)OCC)c2ccccc21	0.65	-1
CCCOc1ccc(C2C(C(=O)OCCOC)=C(C)NC3=C2C(=O)CC(c2ccccc2)C3)cc1OC (centres undefined)	/	4.7
CC1(C)OC2OC(C(=O)Nc3cccc4ccccc34)C3OC(C)(C)OC3C2O1 (centres undefined)	/	-0.35
CC1(C)CNC(=S)NC1	-0.35	/
COc1ccc(OC(=O)c2cnc3n(c2=O)CCS3)cc1	1.2	0.49
Cn1c(CNc2nc(-c3ccccc3)cs2)nnc1SCC(=O)c1ccccc1	-0.2	/
CSc1sc(C(=O)N2CCc3ccccc32)cc1S(=O)(=O)C(C)C	-0.25	0.38
CCOc1cc(-c2nc(-c3ccc(C)nc3OC)no2)cc(OCC)c1OCC	0.1	1.1
CCOc1ccccc1C(=O)n1cc(Cl)cn1	-0.45	0.5
O=C(Nc1cc(C(=O)N2CCN(c3ccc(F)cc3)CC2)ccc1N1CC2CC(C1)c1cccc(=O)n1C2)c1ccncc1 (centres undefined)	/	0.14
Cc1ccc(-c2nnc(SCC(=O)Nc3cc(C)ccc3C)n2N)cc1	-1.1	0.085
CC(C)(C)n1nc(-c2ccc3c(c2)OCCO3)c2ccccc2c1=O	-0.25	/
C=Cc1c(SC)sc(C(=O)O)c1C	/	-0.64
CCCCN1C=C(C(=O)OC)C(c2cc(C)ccc2C)C(C(=O)OC)=C1	-0.3	30
CCS(=O)(=O)N1CCN(c2nc3ccccc3o2)CC1	1.6	-0.11
CCCS(=O)(=O)c1cnc2cc(C3CC3)nn2c1N	-0.4	-0.23

Additional records:
SMILES	AID504770	CapD inh
Oc1oc(-c2ccco2)nc1C=Nc1ccccc1	-1.2	0.26
CN(C)S(=O)(=O)c1cccc(COC(=O)c2n[nH]c3ccccc23)c1	0.45	/
CNS(=O)(=O)c1ccc2c(c1)OCCO2	1.2	/
C[C@]12C=CC(=O)C=C1CCC1C2C(=O)C[C@@]2(C)C1CC[C@]2(O)C(=O)CO (some centres undefined)	0.15	1.2
CC(=O)N1c2ccc(S(=O)(=O)NC(C(=O)NCc3ccccc3)C(C)C)cc2CC1C (centres undefined)	0.3	-0.35
CC(=O)Nc1cccc(C(=O)OCC(=O)NC2CCS(=O)(=O)C2)c1 (centres undefined)	0.85	/
CSC(=NCc1c(N(C)C)cccc1N(C)C)NC#N	0.3	0.48
CCN(CC)C(=O)Oc1cccc2c1C(=O)c1cccc(OC(=O)N(CC)CC)c1C2=O	/	-0.57
O=C(NCc1ccccc1)c1cccc(NC2=NC3CS(=O)(=O)CC3S2)c1 (centres undefined)	-0.1	0.96
CC(C)Nc1ccc(C(F)(F)F)cn1	0.15	2.7
O=C(COC(=O)c1ccc(C(O)c2ccccc2)cc1)c1ccccc1 (centres undefined)	-0.3	-0.42
COCCn1c(SCC(=O)c2ccc(F)cc2)nc2ccccc21	-0.25	/
C=CCC(O)(CC=C)C(N)C(C)C (centres undefined)	-0.5	/
CC(c1nnc(SCc2csc(-c3ccccc3)n2)n1-c1ccc(Cl)cc1)N(C)C (centres undefined)	1.6	/
CC(C)(C)C(=O)Cn1ncc(N2CCOCC2)c(Br)c1=O	/	-1.4
CCCC(C)C(=O)NCc1ccncc1 (centres undefined)	-0.25	0.12
c1ccc(N(c2ccccc2)c2nc(-n3nnc4ccccc43)nc(-n3nnc4ccccc43)n2)cc1	0.45	/
COc1ccc(C2CC(=O)C3=C(C2)NC(C)=C(C(=O)OC(C)C)C3c2ccccc2OC(C)C)cc1OC (centres undefined)	/	3.7
O=C(Oc1ccc(-c2ccccc2)nn1)c1ccco1	-0.25	0.17
CC12CCC(C1)C(C)(C)C2NS(=O)(=O)c1ccc(F)cc1 (centres undefined)	0.3	1.4
CN(CC(=O)OC(C)(C)C)C(=O)NC1CCN(Cc2ccc3ccccc3c2)C1 (centres undefined)	/	0.12
Clc1c2ccccc2c(/C=N/n2cnnc2)c2ccccc12	0	-0.06
Cc1ccc2c(c1)c(-c1ccccc1)c(-c1ccccc1)n2CC(O)CNCCc1ccccc1 (centres undefined)	/	33
CCOC(=O)c1nnn(CC(=O)NCc2ccc(F)cc2)c1C(=O)OCC	-0.1	0.21
N#Cc1c(SCc2c(F)cccc2Cl)nc(-c2ccccc2)c2c1CCC2	/	0.73

Continuation:
SMILES	AID504770	CapD inh
Clc1ccc(-c2noc(-c3sccc3Cl)n2)cc1	-2	0.15
COc1ccc2c(c1)NC(c1ccc(N(C)C)cc1)c1cccn1-2 (centres undefined)	0	46
CCOC(=O)N1CCN(C(=O)CN(Cc2cccc(C)c2)S(=O)(=O)c2ccc(Cl)cc2)CC1	0.75	-0.56
CNCc1ccco1	0.55	/
O=C(O)CN(CC(=O)O)c1ccccc1	-1	0.17
O=C(c1ccccc1)N(Cc1cccnc1)Cc1ccc(Cl)cc1Cl	0.1	-1.3
Cc1[nH]c(=O)[nH]c(=O)c1NC(=O)CC12CC3CC(CC(C3)C1)C2	-0.9	-0.12
Cc1csc(NC(=O)CSc2nnc(-c3ccoc3C)o2)n1	1.2	0.43
O=C(CC1SC(=Nc2ccccc2)N(S(=O)(=O)c2ccccc2)C1=O)Nc1ccccc1 (centres undefined)	/	-0.26
COc1ccccc1N1CCN(C(=O)c2cnn3c(C)c(Cc4ccccc4Cl)c(C)nc23)CC1	/	0.14
COC(=O)c1c(NC(=O)CN2CCN(C(=O)c3ccco3)CC2)sc2c1CCC2	0.25	1.8
CC(c1nc2ccccc2[nH]1)N1CCCCC1 (centres undefined)	-1.1	0.51
CC1CCCCN1C(=O)CSc1nnc(-c2ccc(Cl)cc2)o1 (centres undefined)	-0.05	0.01
O=C1S/C(=C\c2ccc3c(c2)OCO3)C(=O)N1Cc1ccccc1F	1.1	0.53
CC(=O)Nc1cc(-c2nn3c(C)nnc3s2)ccc1C	1.4	-0.085
O=C(O)COCCN1CCCC1=O	0.3	/
COc1ccc(CCNC(=O)c2ccc3c(=O)n(CCCN4CCCC4=O)c(=S)[nH]c3c2)cc1OC	/	-0.79
O/N=C(\Cc1nc2ccccc2s1)c1ccccc1	-0.15	-0.46
O=C(c1ccccc1)N1N=C2CCCCC2C1(O)C(F)(F)F (centres undefined)	0.9	55
O=C(Nc1cc(F)ccc1F)C1CCCN(c2ncnc3onc(-c4ccc(F)cc4)c23)C1 (centres undefined)	0.7	1.6
CC1C(C#N)=C(N)OC2=C1C(=O)CC(c1ccccc1)C2 (centres undefined)	-0.9	0.24
COc1cc2c(cc1OC)C(Nc1ccc(F)c(F)c1)=NC(C)(C)C2	/	-0.2
Cc1nn(CC(=O)NCCc2ccccc2)c(=O)c2cc3occc3n12	-0.55	-0.48
CC(C)(CN1CCc2ccccc2C1)NS(=O)(=O)c1ccccc1	0.9	-0.12
COc1ccc2cc(/C=N/NC(N)=O)c(Cl)nc2c1	-0.2	/

(continued)
SMILES	AID504770	CapD inh
CC(Cc1ccccc1)C(N)=O (centres undefined)	1.2	0.38
CCOC(=O)/C=C1\SCC(=O)N1CCN(C)Cc1ccc(SC)cc1	0.05	/
Cc1ccc(COc2ncnc3cc(Cl)ccc23)cc1	-0.8	-0.32
CS(=O)(=O)c1sc2nc(-c3cccs3)cc(-c3ccccc3)c2c1N	/	5.4
Cc1c(C)c2ccc(OCC(=O)O)c(C)c2oc1=O	0.5	52
CC(=O)Nc1ccc(N2CCN(c3ccc(C(F)(F)F)cn3)CC2)nc1	-0.7	5.5
CC(C)(C)OC(=O)NCC1CCC(C(=O)NNC(=O)C(Cc2cnc[nH]2)NC(=O)OC(C)(C)C)CC1 (centres undefined)	/	-0.41
CCCSC(=S)NC1CCS(=O)(=O)C1 (centres undefined)	-1.6	-0.29
CCOC(=O)c1cc(-c2ccc(S(=O)(=O)N(CC)CC)s2)on1	0.25	0.26
O=C(COC(=O)c1n[nH]c2ccccc12)Nc1ccccc1	0.05	2.9
Brc1ccc(-c2ccnc3nc(N4CCOCC4)nn23)cc1	/	0.26
C/C(=C\c1ccccc1)C(=O)Nc1cc(C)on1	1.1	-1
N#CCC(=O)NCC1OCCc2ccccc21 (centres undefined)	0.95	-0.45
O=C(Nc1nc(-c2ccc(Br)cc2)cs1)c1cc2cc([N+](=O)[O-])ccc2s1	/	0.1
COCCn1c(SC(C#N)Cc2ccc(C)cc2)nnc1-c1cccc(C)c1 (centres undefined)	2.5	/
COC(=O)c1cccc(NC(=O)C2COc3ccccc3O2)c1 (centres undefined)	/	-0.34
NC(=O)C(c1ccc(Sc2ccccc2)nn1)c1ccc(Cl)cc1Cl (centres undefined)	/	0.62

Bioassay records deposited in PubChem by ICCB-Longwood Screening Facility, Harvard Medical School.
